Bead autofluor: counter-screen for toxin protease inhibitors: compound fluorescence | compound autofluorescence counterscreen, microsphere flow cytometry; hits give high values | fluorescence intensity (concentration not given with the values) | 360,000 compounds, 3.1% hits;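 active = at least 3 SD above the mean of all compounds, about 16000 in these data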;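 also: 100 nL of 1 mM stock went into each well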
BJeLR viability: BJeLR cell viability loss | BJeLR (HRASV12) viability, CellTiter-Glo ATP luminescence, 48 h; reference of the scale not given here | inhibition, % (test concentration not listed) | 300,000 compounds, 0.17% hits;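 active = replicate mean above 50%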;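 also: 50 nL library stock added to about 25 µL; numbers are from one replicate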
ugtP null kill: kills S. aureus RN4220 lacking UgtP; S. aureus RN4220 ugtP deletion, OD600 growth, 16 h; some inactives read as strong as hits; growth inhibition, % (concentration not given with the values); 330,000 compounds, 0.54% hits;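 active = z-score under -3 and OD600 up to 0.15 on both plates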;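 also: plate controls were untreated wells for no effect and antibiotic for full effect; wells of about 80 µL received 100 nL stock; the first replicate is given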
Mtb hypoxia rep: inhibitors of hypoxia-regulated fluorescent reporter in Mycobacterium tuberculosis | M. tuberculosis hypoxia-regulated fluorescent reporter, fluorescence | fluorescence inhibition, % (concentration not given with the values) | 300,000 compounds, 0.1% hits;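 active = 35 to 45% if threefold the growth effect, above 45% if 1.5-fold the growth effect; inactive = the rest, general growth blockers included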;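 also: wells of about 50 µL received 100 nL stock; 0% = vehicle wells and 100% = reference inhibitor wells; whole bacteria with a GFP reporter of the hypoxia response; strong numbers were not always called active; many hits fall short of the cut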
Sa RN4220 lethal: kills Staphylococcus aureus RN4220; S. aureus RN4220 growth, OD600, 16 h; inhibition, % (test concentration not listed); 330,000 compounds, 0.33% hits; AID 1259311;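 active = z-score of -3 or lower and OD600 up to 0.18 on both plates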;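 also: plate controls were untreated cells for no effect and reference antibiotic for full effect; stock transfer was 100 nL into about 80 µL; one replicate is shown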
PrP UTR inh: inhibition of PrP 5' UTR reporter expression; inhibition, % (no concentration beside the values); 340,000 compounds, 0.35% hits; cell-based PrP 5' UTR mRNA reporter, plate reader;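 active = every replicate at 50% or more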;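 also: 0 = median of the neutral control wells; tested in H4 reporter cells; numbers are from one replicate; inactives centre near -14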
Mtb hypoxia rep growth: further read-out of Mtb hypoxia rep, marked with its call; growth inhibition, %; measured here: M. tuberculosis growth (absorbance);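 0% = vehicle and 100% = reference antibiotic; read after six days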
* = called active by the depositor; . = not tested or not shown.

SMILES	Bead autofluor	BJeLR viability	ugtP null kill	Mtb hypoxia rep	Mtb hypoxia rep growth	Sa RN4220 lethal	PrP UTR inh
COc1cccc(CN2C(=O)CCC2(C)C(=O)NC2CCCCCC2)c1 (stereo not drawn)	21264*	1	2	5	13	2.6	-10
CCN1C(=O)[C@@H]2[C@H](C1=O)[C@@H]1C(=O)Nc3ccccc3C(=O)N1[C@@H]2c1ccccc1	3471	-4	.	.	.	.	-13
CCOc1ccc2nc(NC(=O)C3CCN(C(=O)c4ccco4)CC3)sc2c1	4029	-4	.	.	.	.	-45
COc1cccc(C=NNC(=S)Nc2cccnc2)c1	.	.	-1	14	12	9.4	.
Clc1cccc(Oc2cnc3ccccc3n2)c1	16039	-2	15	7	9	2.4	-23
CC(C)Cc1cc(C(=O)N2CCC(N3CCC(C(=O)NC4CC4)CC3)CC2)n[nH]1	3894	7	5	-2	12	-1.1	-71
CCn1nc(C)c(CNC(=O)CCc2nnc(Cc3c[nH]c4ccccc34)o2)c1C	4208	-3	22	-2	4	11	0
O=C(NCCN1CCOCC1)c1cc2cc(Br)ccc2oc1=O	10871	5	4	11	4	6.2	-15
CCn1cc(CN2CCCC(C(=O)c3ccc(-c4ccccc4)cc3)C2)cn1 (stereo not drawn)	4365	1	34	7	5	-3.5	-8
Cc1ccc([N+](=O)[O-])cc1S(=O)(=O)Nc1cccc(-c2ccc(N3CCCC3)nn2)c1	.	4	-3	7	1	-0.9	-21
CC(C)(C)NS(=O)(=O)c1ccc(NS(=O)(=O)c2ccc(F)cc2)cc1	3123	-6	-10	8	8	7.7	-11
COc1ccc(Br)cc1/C=C/C(=O)Nc1ccc2ccccc2c1	9175	-3	-8	4	1	-12	-15
CCCN(CC(=O)Nc1ccccc1C)C(=O)c1cn2ccccc2n1	2693	.	0	-6	-8	3.8	-9
CCOC(=O)c1ccc(NC(=O)CSc2nnc(CNc3ccc(C)cc3)n2C)cc1	2627	6	6	.	.	0.4	-10
O=C(O)c1ccc2c(=O)n3c(nc2c1)/C(=C/c1cccc(Cl)c1Cl)CC3	4757	2	2	-2	6	4.9	-29
CCCCC1=CC2=CC(=O)C(C)(OC(=O)c3cccs3)C(=O)C2=CO1 (stereo not drawn)	4095	4	-13	-2	1	0.8	-15
Cc1ccc(Oc2ccccc2/C=C2\SC(=O)N(C)C2=O)cc1	21464*	-6	2	3	-4	6.7	-3
Cc1ccc(-c2nnn(CC(=O)N3CCN(c4ccccc4)CC3)n2)o1	8913	1	14	-2	-2	7.8	-7
O=C(CSc1nnnn1-c1ccccc1)NC(=O)Nc1ccc2c(c1)OCCO2	3187	6	6	4	3	1.6	-44
CCOC(=O)/C(C#N)=C1/SC(CCO)C(=O)N1c1ccccc1 (stereo not drawn)	4338	4	-1	-3	11	6.7	-17
COc1cc(NC(=O)C2CCCCN2)ccc1OCC(C)C (stereo not drawn)	3148	2	.	.	.	.	-8
c1ccc(C2[C@H]3CN(Cc4cccnc4)[C@H](c4ccccc4)C34CC2(c2ccccc2)C4)cc1 (stereo partly drawn)	4736	4	.	.	.	.	-6
COc1ccc2c(ccc[n+]2CC(=O)c2ccccc2)c1	4343	-2	-1	0	4	5.1	7
CC(=O)NN1C(=O)/C(=C\c2ccc(C)cc2)SC1=S	11120	4	-6	6	13	0.3	-6
CCN(C(=O)COC(=O)C1=COCCO1)c1c(N)n(Cc2ccccc2)c(=O)[nH]c1=O	5119	.	9	-1	2	1.0	-11
CCOC(=O)N1CCN(C(=O)Cn2c(=O)sc3ccccc32)CC1	9765	15	-6	7	-2	-0.2	-32
COCCOC(=O)c1c(C)oc2ccc(NS(=O)(=O)c3ccc(C(=O)O)cc3)cc12	9005	-16	4	5	1	-0.3	-33
CCC1(CC)C(=O)NC(=O)NC1=NCCc1ccc(O)cc1	3084	-2	-4	-4	-3	1.4	-18
CCc1nn2c(=O)cc(COc3ccc(/C=C4\C(=N)N5N=C(C)SC5=NC4=O)cc3)nc2s1	2479	1	3	-21	-11	3.5	1
COc1ccc2[nH]c(O)c(NC(C)=O)c2c1	4593	-2	9	.	.	-1.9	-10
CCN1CCN(c2ccccc2NC(=O)C(C)Oc2ccc(C(C)=O)cc2)CC1 (stereo not drawn)	3748	.	1	15	9	1.2	-26
COc1ccc(NC(=O)CSc2cccc3cccnc23)c(OC)c1	3019	-4	-1	1	12	1.3	-9
CCn1cc(Br)c(C(=O)Nc2cccc(Cl)c2)n1	4619	-9	-9	-8	2	-0.9	-42
CCOc1ccc(NC(=O)CC2C(=O)N(c3cccc(OC)c3)C(=O)N2C(C)C)cc1 (stereo not drawn)	4332	0	18	-1	1	12	-8
COc1ccc(N(C(=O)CNC(=O)c2cccs2)C(C(=O)NC2CCCC2)c2ccncc2)cc1 (stereo not drawn)	4903	-14	.	.	.	.	-20
Cc1cccc(NC(=O)N2CCCC2C(=O)NCc2cccs2)c1 (stereo not drawn)	3065	-5	-1	16	0	-15	-16
C/C(=N\NC(=O)c1ccncc1)c1cc2ccccc2o1	2477	9	.	.	.	.	-6
Cn1c(CO)cnc1SCC(=O)c1ccc(F)cc1	2866	-6	11	3	4	4.3	-23
COC(=O)CN(C(=S)Nc1ccc(Cl)cc1)C1CC(=O)N(c2ccc(OC)cc2)C1=O (stereo not drawn)	16115	-8	7	8	2	6.3	1
Cc1cc(NC(=O)CCC(=O)N(CCC(C)C)C(C(=O)NC2CCCC2)c2cccnc2)no1 (stereo not drawn)	4224	-6	-3	.	.	1.8	-3
COc1ccc(NS(=O)(=O)c2cc(OC)ccc2NC(=O)c2cc(C)oc2C)cc1	2996	29	13	-1	6	-4.6	-80
COc1ccc(CCNC(=O)CSc2ccc(-c3ccco3)nn2)cc1OC	4039	-21	3	12	5	0.9	-8
COc1ccc(/C=N/N2C(=O)C3C4C=CC(C4)C3C2=O)cc1[N+](=O)[O-] (stereo not drawn)	3274	10	.	.	.	.	-27
Cc1ccc(C(=O)N2CCN(c3ncccn3)CC2)c(C)c1	6417	-1	6	-4	8	3.1	-16
NS(=O)(=O)c1cccc(NC(=O)c2cccc(N3C(=O)c4ccccc4C3=O)c2)c1	3525	.	4	3	5	1.4	-4
O=C(Nc1ccc(Cc2ccncc2)cc1)C1CCC(N2C(=O)C3CCCCC3C2=O)CC1 (stereo not drawn)	2506	4	6	-4	11	5.0	-1
COc1ccccc1-c1c(C(F)(F)F)oc2cc(OCC(=O)Nc3ccccc3C(F)(F)F)ccc2c1=O	2139	4	-2	.	.	4.8	-2
CC1=NN(c2ccccc2)C(=O)C1N=Nc1ccc(S(N)(=O)=O)cc1 (stereo not drawn)	3857	5	-8	1	4	3.2	5
O=C(/C=C/c1ccccc1)NNC(=O)c1cccc(Cl)c1	10443	-4	6	5	8	0.4	-31
CCN(CC)S(=O)(=O)c1cccc(-c2nnc(SCC(N)=O)n2CCc2ccccc2)c1	3258	-1	10	.	.	6.7	-8

Further results
SMILES	Bead autofluor	BJeLR viability	ugtP null kill	Mtb hypoxia rep	Mtb hypoxia rep growth	Sa RN4220 lethal	PrP UTR inh
C=CCN1C2CCCC1CC(NC(=S)Nc1cccc(OC)c1)C2 (stereo not drawn)	4342	-9	.	.	.	.	-14
Cc1nc(N)nc(N(C)c2ccccc2)c1Br	3440	.	5	22	11	7.6	-9
C=CCOc1ccc(/C=C/C(=O)OCC(=O)N(C)CC(=O)Nc2ccc(F)cc2)cc1	6001	20	-2	7	5	2.7	-30
Cc1ccc(S(=O)(=O)CC(=O)N2CCCC2)cc1	3753	.	5	.	.	3.1	1
Cc1cc(Cl)c(S(N)(=O)=O)cc1OCC(=O)NC1CCCCC1	3985	2	15	5	-1	3.9	-8
CCOc1ccc(NC(=NCc2ccc3c(c2)OCO3)SC2CC(=O)N(c3ccc(OCC)cc3)C2=O)cc1 (stereo not drawn)	3637	-3	3	1	-1	-6.0	8
O=S(=O)(O)c1ccc(NN=Cc2ccccc2O)cc1	3333	.	-6	-5	7	-2.7	-33
CCCCC(=O)Nc1cc(-c2nc3ncccc3o2)ccc1C	3351	-5	4	12	9	0.3	26
N#CCCN(Cc1ccccc1)C(=O)Nc1ccccc1	6049	5	9	5	4	2.7	-20
CSCCC(Nc1ccc(S(=O)(=O)N2CCOCC2)cc1[N+](=O)[O-])C(=O)OCC(=O)N(C(C)C)C(C)C (stereo not drawn)	2344	6	5	9	8	6.1	-30
CC(/C=C/c1ccc(N(C)C)cc1)=N\N=C1\NC(=O)CC(C(=O)Nc2ccccc2)S1 (stereo not drawn)	2701	-10	.	.	.	.	-39
Cc1ccc(NC(=S)NCc2ccccc2Cl)c(C)c1	2038	-10	-4	-7	-3	11	-18
O=C(COC(=O)Cc1ccc(S(=O)(=O)N2CCOCC2)s1)NCCc1ccccc1	10781	0	-3	2	-6	-1.8	-5
Nc1ccc(S(=O)(=O)c2ccccc2)nc1	3790	-9	-3	-5	-1	4.9	-11
COc1ccc(-c2cc3c(=O)n(CC(=O)NCCCN4CCC(Cc5ccccc5)CC4)ncn3n2)cc1	5644	32	.	.	.	.	5
CC1(C)Cc2c(sc3c2c(=N)n(Cc2ccco2)c(=O)n3Cc2ccc(Cl)cc2)CO1	4665	-6	-2	.	.	-8.6	-7
O=C(Nc1ccc(O)cc1)c1ccc(C(=O)c2ccccc2)o1	2462	-7	7	16	8	2.1	-37
COc1cc(C=NNc2nc(Nc3ccccc3)nc(-n3nc(C)cc3C)n2)cc(OC)c1OC	.	.	-7	-8	8	16	.
O=C(NCC1CCCO1)c1ccc[nH]1 (stereo not drawn)	3397	-3	11	-2	4	0.5	-19
Cc1ccc(S(=O)(=O)c2cc(C#N)c(=O)[nH]c2N)cc1	9434	-3	1	6	9	6.6	-21
O=C(Nc1ccc(Cl)cn1)c1ccccc1F	4167	6	19	23	4	1.7	-88
Cc1ccc(S(=O)(=O)N=Nc2c(O)[nH]c3ccccc23)cc1	3799	-3	-2	17	8	7.7	-5
O=C(NCc1ccccc1Cl)c1ccncc1	3023	16	1	-1	-14	1.1	0
Cc1cccc(OCC(=O)N(Cc2ccccc2)c2c(N)n(Cc3ccccc3)c(=O)[nH]c2=O)c1	.	.	9	11	9	3.9	9
CC(C)CCNC(=O)c1ccc(Cl)c(N)c1	.	3	7	.	.	1.5	.
O=C(Nc1ccccc1C(=O)N/N=C/c1ccco1)c1ccccc1Cl	9824	3	.	.	.	.	9
O=C(c1ccccc1)N1CCN(C(=O)c2ccccc2Br)CC1	9732	4	-6	4	5	1.2	-1
Cc1ccc(C)c(NC(=O)Cc2nc(CNCC(C)C)cs2)c1	5218	-4	-3	3	-6	3.1	-14
CC1CCCC(NC(=O)COC(=O)CN2C(=O)C3CCCCC3C2=O)C1C (stereo not drawn)	2573	0	7	5	3	10	-1
O=C(NN=C1C2CN3CCN(C2)CC1(c1ccccc1)C3)Nc1ccccc1	.	.	9	4	1	7.4	.

A second format for part of the listing above.
O=C(Nc1ccc(Cl)cn1)c1ccccc1F
  Bead autofluor = 4167	BJeLR viability = 6	ugtP null kill = 19	Mtb hypoxia rep = 23	Mtb hypoxia rep growth = 4	Sa RN4220 lethal = 1.7	PrP UTR inh = -88
Cc1ccc(S(=O)(=O)N=Nc2c(O)[nH]c3ccccc23)cc1
  Bead autofluor = 3799	BJeLR viability = -3	ugtP null kill = -2	Mtb hypoxia rep = 17	Mtb hypoxia rep growth = 8	Sa RN4220 lethal = 7.7	PrP UTR inh = -5
O=C(NCc1ccccc1Cl)c1ccncc1
  Bead autofluor = 3023	BJeLR viability = 16	ugtP null kill = 1	Mtb hypoxia rep = -1	Mtb hypoxia rep growth = -14	Sa RN4220 lethal = 1.1	PrP UTR inh = 0
Cc1cccc(OCC(=O)N(Cc2ccccc2)c2c(N)n(Cc3ccccc3)c(=O)[nH]c2=O)c1
  Bead autofluor = .	BJeLR viability = .	ugtP null kill = 9	Mtb hypoxia rep = 11	Mtb hypoxia rep growth = 9	Sa RN4220 lethal = 3.9	PrP UTR inh = 9

Later entries.
SMILES	Bead autofluor	BJeLR viability	ugtP null kill	Mtb hypoxia rep	Mtb hypoxia rep growth	Sa RN4220 lethal	PrP UTR inh
Cc1ccc2c(c1)C(=O)CC(O)(C(F)F)O2 (stereo not drawn)	5912	6	0	-2	10	1.8	-24
CS(=O)(=O)c1ccc(Cl)c(NC(=O)Cc2c(Cl)cccc2Cl)c1	2236	5	-1	-7	-8	10.0	0
N#CC1(NC(=O)COc2ccc(S(=O)(=O)N3CCCC3)cc2[N+](=O)[O-])CCCCC1	.	8	2	9	13	-1.8	-5
CCCn1c(SCC(=O)NCc2ccc(OC)cc2)n[nH]c1=O	4308	5	2	10	16	9.0	-8
